Screening data as filed in PubChem BioAssay.
Mtb hypoxia rep = PubChem AID 1159583 | 300,000 tested, 0.1% active | fluorescence inhibition, % (test concentration not listed) | M. tuberculosis hypoxia-regulated fluorescent reporter, fluorescence;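 active = 35 to 45% if threefold the growth effect, above 45% if 1.5-fold the growth effect; inactive = the rest, general growth blockers included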;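 also: wells of about 50 µL received 100 nL stock; 0% = vehicle wells and 100% = reference inhibitor wells; whole bacteria with a GFP reporter of the hypoxia response; strong numbers were not always called active; many hits fall short of the cut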
Sa ugtP lethal = growth inhibition of ugtP-null S. aureus, primary screen, RN4220 ugtP deletion, OD600; 16 h; some inactives read as strong as hits; growth inhibition, % (no concentration beside the values); 330,000 tested, 0.54% active; AID 1259309, 2017;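 active = z-score under -3 and OD600 up to 0.15 on both plates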;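 also: plate controls were untreated wells for no effect and antibiotic for full effect; wells of about 80 µL received 100 nL stock; the first replicate is given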
BJeLR lethal = MLPCN primary cell-based screen for lethality selective to Ras in HRASV12 cells | BJeLR (HRASV12) viability, CellTiter-Glo ATP luminescence, 48 h; reference of the scale not given here | inhibition, % (no concentration beside the values) | 300,000 tested, 0.17% active | AID 1554, 2009;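 active = replicate mean above 50%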;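 also: 50 nL library stock added to about 25 µL; numbers are from one replicate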
Bead autofluor = compound fluorescence in toxin protease inhibitor counterscreen; compound autofluorescence counterscreen, microsphere flow cytometry; hits give high values; fluorescence intensity (concentration not given with the values); 360,000 tested, 3.1% active;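 active = at least 3 SD above the mean of all compounds, about 16000 in these data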;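 also: 100 nL of 1 mM stock went into each well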
RN4220 kill = growth inhibition of S. aureus RN4220, primary screen, OD600; AID 1259311, 2017; 330,000 tested, 0.33% active; 16 h; inhibition, % (test concentration not listed);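 active = z-score of -3 or lower and OD600 up to 0.18 on both plates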;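 also: plate controls were untreated cells for no effect and reference antibiotic for full effect; stock transfer was 100 nL into about 80 µL; one replicate is shown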
PrP 5UTR inh = inhibition of PrP 5' UTR reporter expression | cell-based PrP 5' UTR mRNA reporter, plate reader | 340,000 tested, 0.35% active | inhibition, % (test concentration not listed);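 active = every replicate at 50% or more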;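 also: 0 = median of the neutral control wells; tested in H4 reporter cells; numbers are from one replicate; inactives centre near -14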
Mtb hypoxia rep growth = second read-out of Mtb hypoxia rep, no call of its own (marks repeat the call); growth inhibition, %; measured here: M. tuberculosis growth (absorbance);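 0% = vehicle and 100% = reference antibiotic; read after six days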
* hit, by the source's call; . = not tested or not shown.

molecule	Mtb hypoxia rep	Mtb hypoxia rep growth	Sa ugtP lethal	BJeLR lethal	Bead autofluor	RN4220 kill	PrP 5UTR inh
CC(C)CNS(=O)(=O)c1cc(C(=O)OC2CCOC2=O)c(Cl)cc1Cl (configuration not stated)	12	3	3	-2	3609	2.9	-26
Cc1noc(C)c1COC(=O)c1cc(=O)[nH]c2ccccc12	.	.	3	.	3535	4.7	-5
Cc1ccc(S(=O)(=O)N2CCCCC2)cc1NC(=O)COC(=O)C1(C)CC1(Cl)Cl (configuration not stated)	16	1	1	.	8799	1.6	-6
CN(CCc1cn[nH]c1)C(=O)CC1C(=O)NCCN1Cc1cccc(Oc2ccccc2)c1 (configuration not stated)	1	-2	3	-1	3550	3.4	-33
C=CCn1c(O)c(CN2CCCCC2)c(C)c(C#N)c1=O	13	7	6	-9	4142	12	-25
Cc1ccc(NC(=S)N2CCC(N(C)CC3CCCO3)CC2)cc1 (configuration not stated)	-4	-5	2	13	4666	3.0	2
CCn1cc(Cl)c(C(=O)N2N=C(c3ccc4ccccc4c3)CC2c2ccccc2O)n1 (configuration not stated)	13	3	-10	-7	2521	-0.4	-10
CC(=NCCCn1ccnc1)c1c(O)n(C)c(=O)n(C)c1=O	7	15	0	5	19563*	1.7	-5
CCOC(=O)c1ccccc1NC(=O)COC(=O)C1CCCC1	2	2	6	7	.	3.5	-8
CC1(NC(=O)CSc2nnc(-c3ccco3)n2Cc2ccccc2)CCS(=O)(=O)C1 (configuration not stated)	-1	0	4	.	2986	2.5	-25
Cc1cc(CNC(=O)c2cc(-c3ccccc3)nc3ccccc23)nn1C	0	5	1	-4	4049	3.0	-4
Cc1ccc(/C=C2/C(=O)NC(=O)N(Cc3ccc(F)cc3)C2=O)o1	2	8	4	5	.	1.5	.
S=C(Nc1ccccc1)Nc1nc2ccccc2n1CCOc1ccc(Br)cc1	11	-3	13	-3	2737	9.0	-18
CCN1CCN(CCNC(=O)c2ccc3c(c2)N(Cc2ccc(F)cc2)C(=O)c2ccccc2S3=O)CC1 (configuration not stated)	-3	5	-7	-2	5067	-3.5	-10
O=C(Nc1cccc(C(=O)O)c1)/C(=C\c1ccccc1)NC(=O)c1cccc2ccccc12	11	4	1	-3	4484	4.1	-33
Cc1ccc(S(=O)(=O)N2CCN(C(=O)[C@H](Cc3ccccc3)NC(=O)c3ccco3)CC2)cc1	6	9	2	.	3428	10	-11
CCc1nnc2n1N=C(c1ccc([N+](=O)[O-])cc1)CS2	14	8	0	-5	4095	6.5	-20
O=C(NCCCCc1ccccc1)C1CC(c2cc(C(F)(F)F)cc(C(F)(F)F)c2)=NO1 (configuration not stated)	0	8	-1	-3	4148	6.3	-13
Cc1ccc2[nH]c(C(=O)N/N=C/c3ccccc3C(=O)O)c(-c3ccccc3)c2c1	.	.	.	-9	4056	.	-23
Cc1cc(C(F)(F)F)n(-c2nc(C(=O)NN)cs2)n1	-2	8	1	4	4286	0.5	-15
O=C(CN(c1ccc(F)cc1)S(=O)(=O)c1ccc2c(c1)OCCO2)NCC1CCCO1 (configuration not stated)	-4	5	-8	4	22449*	-4.8	11
O=C(Nc1nnc(-c2ccncc2)o1)c1cccc(N2C(=O)CCC2=O)c1	11	9	-2	-8	3038	1.7	-5
COC(=O)C1CN(C(=O)c2ccc(OC(F)F)cc2)c2ccccc2O1 (configuration not stated)	8	6	3	0	3909	2.0	-1
CC1CCc2c(sc(NC(=O)c3nc4ncccn4n3)c2C#N)C1 (configuration not stated)	-12	-11	-7	6	3061	-2.7	-20
Cc1cc(NC(=O)CSc2nc3ccc(Cl)cc3[nH]2)no1	-6	0	-2	-1	8665	3.7	0
CCc1nc(SCC(=O)Nc2ccc3c(c2)OCCO3)c2oc3ccccc3c2n1	.	.	6	1	2148	5.4	4
CCc1ccc2nc(N=C(N)N)nc(C)c2c1	-17	-4	6	7	4607	-7.2	-1
CCCCCCCCCS(=O)(=O)Nc1cc(C)ccn1	0	3	4	0	2153	5.8	-22
CC(C)c1cc(C(C)C)c(S(=O)(=O)N2c3ccccc3[C@@]3(Br)CC4C(=O)NC(Cc5ccccc5)C(=O)N4C23)c(C(C)C)c1 (some centres not stated)	1	3	-30	.	.	8.1	.
Cc1cc(C)c(-n2c(O)c(C=NCCN3CCOCC3)c(=O)[nH]c2=O)c(C)c1	6	3	3	3	2742	8.0	-23
Clc1cncc(Cl)c1NNc1c2ccccc2nc2ccccc12	8	10	-28	6	1979	-4.4	-22
CCCn1c2ccc(F)cc2c2nnc(SCCN3CCOCC3)nc21	0	7	12	-4	3624	0.3	-6
CN(Cc1c(C(=O)NN=Cc2ccccc2)nnn1-c1nonc1N)C1CCCCC1	-10	-4	-3	.	.	5.9	.
CCOC(=O)c1ccc(NC(=S)N(CCN2CCCCCC2)Cc2cccs2)cc1	4	15	4	0	4997	13	-6
Cc1ccccc1NC(=O)c1c(C)nc(SCC(=O)OCc2ccccc2)c(C#N)c1-c1ccc(F)cc1	-1	8	15	-6	2110	3.1	-24
O=C(Nc1nc(-c2ccccc2)cs1)c1cccc([N+](=O)[O-])c1C(=O)O	5	-2	14	-4	2073	4.6	-16
COc1ccc(NCC(O)Cn2cnc3c2c(=O)n(C)c(=O)n3C)cc1 (configuration not stated)	13	2	14	7	2511	5.2	-24
O=C(Nc1ccc(-c2csnn2)cc1)C(Cl)(Cl)Cl	-3	-4	1	6	3743	6.3	-19
CCn1ccnc1CN(C)Cc1cn(-c2ccc(C)cc2)nc1-c1cccc(C)c1	-7	4	3	6	4368	-0.2	-13
CCCCN(C)C(=O)c1cn(-c2cccc(OC)c2)c(=O)c2ccccc12	6	7	5	-1	3391	1.7	-15
CCCCCCCCCC(=NO)c1ccccn1	7	5	64	.	.	54	.
COC(=O)c1cc(C(=O)c2ccc(Cl)cc2)n2c(=O)c(=CN(C)C)sc12	-4	4	4	.	.	10	.
CCCCN(CC)CCNC(=O)Cn1cnc2sc(C)c(S(=O)(=O)N3CCC(C)CC3)c2c1=O	-3	-9	6	-5	5506	2.0	-12
C=CCNC(=O)C1CC1(c1ccc(C)cc1)c1ccc(C)cc1 (configuration not stated)	16	9	3	8	4114	3.3	-26
Cc1cccc(NC2=C(Cl)C(=O)OC2OC(C)C)c1 (configuration not stated)	8	-2	11	4	4259	2.4	-5
COc1cccc(-c2nc(NC(C)(C)C)c3ccccc3n2)c1O	-3	14	-54	-6	4254	-14	-6
Cc1ccc(-c2cc(C(=O)Nc3ccc(S(=O)(=O)Nc4ncccn4)cc3)c3ccccc3n2)cc1	16	7	2	-6	2601	0.6	-5
CC(C)C(Nc1ccc(S(=O)(=O)N2CCOCC2)cc1[N+](=O)[O-])C(=O)O (configuration not stated)	4	6	5	5	3327	11	10
CCn1cc(C(=O)NC2CC(C)(C)Cc3c2cnn3-c2cccc(F)c2)cn1 (configuration not stated)	6	-3	16	-10	5871	2.3	-18
CC(Nc1ccccc1N1CCCCC1)C(=O)N1CCc2ccccc21 (configuration not stated)	18	0	-3	4	4522	37	-19
Cc1ccc(-c2csc(NCCn3c(-c4ccncc4)nc4ccccc43)n2)cc1	1	-2	-1	-15	3611	-6.0	-24
CC(C)OC(=O)C(C)Oc1ccc(C(=O)NCCc2ccccc2)cc1 (configuration not stated)	5	-2	8	-8	2977	-1.6	-23
COc1ccc(C(=O)Nc2ccccc2C(=O)N/N=C/c2ccc(O)c(OC)c2)cc1	.	.	.	7	3301	.	80*
CC(NC(=O)COc1ccccc1)C1COc2ccccc2O1 (configuration not stated)	14	31	-2	-3	3653	-4.0	4
CCOC(=O)C1CCCN(C(=O)c2cc3cc(OC)c(OC)cc3[nH]2)C1 (configuration not stated)	10	0	-3	1	2993	-2.5	-10
CN(C(=O)CSc1ncnc2sccc12)c1c(N)n(Cc2ccccc2)c(=O)[nH]c1=O	-4	0	-4	1	6154	-1.0	-34
C=CCC1NS(=O)(=O)O[C@H](CCCC)[C@@H]1O (some centres not stated)	.	.	.	3	3549	.	-18
O=C(O)c1ccc(C2SCC(=O)N2Cc2ccccc2)cc1 (configuration not stated)	14	6	2	-6	2731	-9.7	-22
CC1=NN(c2ccccc2)C(=O)C1C(=O)c1ccccc1 (configuration not stated)	14	4	5	-10	2400	20	-21
Cc1ccc(C(O)P(=O)(Oc2ccccc2)Oc2ccccc2)cc1 (configuration not stated)	6	4	-3	-2	4076	3.6	-26

More entries follow.
molecule	Mtb hypoxia rep	Mtb hypoxia rep growth	Sa ugtP lethal	BJeLR lethal	Bead autofluor	RN4220 kill	PrP 5UTR inh
COc1ccccc1NC(=O)C(=O)/C=C(\O)c1ccccc1	7	-6	0	-3	5286	11	-12
CCOC(=O)c1c(/N=C/c2c(O)n(-c3cccc(C)c3)c(=O)[nH]c2=O)sc2c1CCCC2	9	3	-2	7	2500	6.0	-26
Cc1cc([N+](=O)[O-])nn1CC(=O)NC(C)c1ccccc1 (configuration not stated)	15	4	13	2	4046	4.4	2
CCOc1ccc2c(c1)c(N=O)c(O)n2C	11	11	90*	9	1851	4.1	6
COc1cc(CCCN2C(N)=NC[C@@H]2c2ccccc2)cc(OC)c1OC	.	.	.	12	2993	.	-20
O=C(NC1CCCC1)C(c1cccs1)N(Cc1ccco1)C(=O)Cn1nnc(-c2cccs2)n1 (configuration not stated)	5	9	2	5	10359	0.8	-7
C/C(=N\NC(=O)CCCOc1ccc(Cl)cc1C)c1ccc(C)o1	.	.	.	-10	2155	.	-25
O=C(Nc1ccc(-n2ccc(C(F)(F)F)n2)cc1)c1cccs1	-3	4	-24	3	6051	-2.6	-59
COc1ccc(Cl)cc1NC(=O)Nn1cnnc1	-4	-16	5	-2	16503*	5.3	-25
CCOC(=O)c1ccc(N2C(=O)CC(Nc3ccc(O)cc3)C2=O)cc1 (configuration not stated)	2	-3	-7	-6	4362	4.2	-12
O=C(COC(=O)CC1SC(N2CCCC2)=NC1=O)Nc1ccc(Br)cc1 (configuration not stated)	-8	-2	0	.	5158	0.5	-7
COc1ccccc1-c1c(C)oc2c(CN3CCN(C)CC3)c(O)ccc2c1=O	5	12	2	0	21100*	3.4	-11
N#Cc1ccc(OC(=O)c2cnccn2)cc1	-4	-4	-2	-13	3886	5.5	-18
O=C(NCC1CCCO1)C1CC1(c1ccccc1)c1ccccc1 (configuration not stated)	15	2	0	1	2596	1.4	-27
COc1cccc(NC(=O)CN2CCN(S(=O)(=O)c3ccc(C(C)C)cc3)CC2)c1	.	.	-11	0	2785	0.4	-6
COc1cccc(CC(Cc2nc3ccccc3[nH]2)c2nc3ccccc3[nH]2)c1 (configuration not stated)	-1	11	-1	1	4469	-1.5	-12
Cc1[nH]n(C(N)=S)c(=O)c1N=Nc1ccccc1C(F)(F)F	18	7	17	4	3634	4.6	-28
CS(=O)(=O)c1ccc(C(=O)NNC(=O)c2ccccc2-n2cccc2)cc1	1	6	1	.	8038	3.5	-4

An unsorted share of the library, and some 4% of all compounds hit somewhere here.
